Vaccinia Venus: vaccinia inhibition (Venus reporter) | Vaccinia virus Venus reporter expression, fluorescence | Potency, µM (highest dose often 36.5 µM), for inactives: top-dose activity change, negative = inhibition, actives largely listed as inhibitors | actives 0.46% (n = 330,000); active means well fitted inhibition curve with a large enough effect; inconclusive means small, poorly fitted or top-dose-only effect; inactive means no such curve, though single readings can be large or run the other way; tested in A549 cells; note: nearly all actives have a fitted effect of over 30% in size; inactives centre near -10
Vaccinia mCherry: inhibitors of vaccinia virus infection (mCherry reporter signal); Vaccinia virus mCherry reporter infection, fluorescence; about a quarter of the inactives have no number; Potency, µM (titrated, usually from 36.5 µM), for inactives: at the highest dose activity change, negative = inhibition, actives largely listed as inhibitors; actives 0.63% (n = 310,000); active = well fitted inhibition curve with a large enough effect; inconclusive = small, poorly fitted or top-dose-only effect; inactive = no such curve, though single readings can be large or run the other way; tested in A549 cells; note: nearly all actives have a fitted effect of over 35% in size; inactives centre near -10
Numbers without * were called inactive; i = inactive; ? = inconclusive; . = no result given. % is set by controls: 0 for no effect and ±100 for the full control effect; potency is the fitted concentration of half-maximal effect.

no.	SMILES	Vaccinia Venus	Vaccinia mCherry
1	Cc1ccc(NC(=O)COC(=O)c2ccccc2Nc2ccccc2)cc1	-23.5%	-3.2%
2	CCc1ccc(OCc2nc(-c3ccc(-n4cccc4)cc3)no2)cc1	-14.4%	-11.8%
3	O=C(CN(CC1CCCO1)C(=O)CNS(=O)(=O)c1ccc(Cl)cc1)NCc1ccccc1 (configuration not stated)	-0.1%	-5.4%
4	Cc1ccc(S(=O)(=O)Nc2cccc(Cl)c2)cc1NC(=O)C1CC1	-16.1%	-21.2%
5	Cn1cccc1Cc1nnc(SCC(=O)Nc2ccc3c(c2)OCO3)n1-c1ccc(F)cc1	-3.6%	-4.4%
6	COc1ccc(N(CC(=O)N2CCCCC2)S(=O)(=O)c2ccccc2)c(OC)c1	2.8%	-13.2%
7	O=S(=O)(c1ccc(Cl)cc1)N1CCC2(CC1)OCCO2	-6.5%	i
8	O=C(NC(Cc1ccccc1)C(=O)NC1CC1)OCc1ccccc1 (configuration not stated)	-8.6%	-7.3%
9	COCCNc1oc(-c2ccco2)nc1S(=O)(=O)c1ccccc1	-4.5%	-8.6%
10	Clc1ccc(OCCN2CCCCC2)c(Cl)c1	-12.6%	-3.6%
11	CN(Cc1ccc(OCC(O)CN2CCCCC2)cc1)Cc1ccnc2ccccc12 (configuration not stated)	?	?
12	CN(C)Cc1c(O)c(Cl)cc2c3c(c(=O)oc12)CCCC3	0.3%	.
13	CC(C)N(Cc1nc(-c2ccccc2)no1)C(=O)COc1ccccc1	-2.9%	-18.6%
14	O=C(CCSCc1ccccc1F)NCc1ccc(F)cc1	-9.0%	-7.8%
15	Cn1c(=NC(=O)c2cccc([N+](=O)[O-])c2)sc2ccccc21	-10.5%	i
16	CC(C)c1ccc(-c2nc(N3CCOCC3)[nH]c(=O)c2C#N)cc1	3.0%	-10.7%
17	COC(=O)c1cc(CNC(=O)c2cccc(Cl)c2)ccc1OC	-10.8%	-20.7%
18	CCC1C(=NO)C(CC)C(c2ccccc2)NC1c1ccccc1 (configuration not stated)	-4.2%	-6.2%
19	COc1cc2c(cc1OC)CC(=O)NC=C2	-8.3%	i
20	CCOc1ccc(NC(=O)CC2C(=O)N(c3ccc(OC)c(Cl)c3)C(=S)N2C2CC2)cc1 (configuration not stated)	-21.9%	-2.8%
21	O=C(CCN1CCN(Cc2ccccc2)CC1)Nc1ccccc1Cl	-13.2%	-20.1%
22	COc1ccc(CNC(=O)C2CCCN(S(=O)(=O)c3ccc(F)cc3)C2)cc1 (configuration not stated)	-15.1%	i
23	O=[n+]1c2c(n([O-])c3cc(Cl)ccc31)CCCC2	10.7%	.
24	CCn1c(=O)c2cc(C(=O)N(CC(C)C)CC(C)C)sc2c2ccccc21	-10.3%	-15.0%
25	Cc1ccc(CNCc2cccnc2)cc1	-18.5%	i
26	COc1ccc(CNC(=O)C[C@H]2C[C@H](C(=O)N(C(C)C)C(C)C)[C@@]3(C)c4[nH]c5cc(-c6ccco6)ccc5c4CCN3C2=O)cc1OC	?	?
27	COc1ccccc1/C=N/NC(=O)c1cccc(NC(=O)c2ccccc2C)c1	0.6%	-22.0%
28	CCOc1ccc(CCNC(=O)c2c(C)nn(-c3ccccc3)c2Cl)cc1OCC	-18.9%	-9.7%
29	CCOC(=O)CN1C(=O)S/C(=C/c2ccc(OCc3ccc(C(=O)O)cc3)cc2)C1=O	-5.4%	-11.2%
30	COc1ccc(-c2nc(CCNC(=O)c3ccco3)cs2)cc1OC	-3.6%	13.1%

Additional structures follow.
no.	SMILES	Vaccinia Venus	Vaccinia mCherry
31	COCCNC(=O)/C(C#N)=C/c1cn(CC(=O)NCc2ccco2)c2ccccc12	-20.8%	i
32	Cc1ccc(S(=O)(=O)Cn2nnnc2C(c2ccc(F)cc2)N2CCCCC2)cc1 (configuration not stated)	-6.6%	-14.9%
33	O=C(NCC1(O)CCCCC1)C1CCC(=O)N(CCc2ccccc2)C1 (configuration not stated)	-21.6%	i
34	Cc1nc(NCC(=O)c2c[nH]c3ccccc23)sc1C	-26.5%	-21.1%
35	CCOC(=O)c1csc(N/N=C2\CCCc3ccccc32)n1	-16.2%	?
36	COc1ccc(Cl)cc1CN1CCOCC1	-4.3%	-14.1%
37	COc1ccc(C(O)c2ccccc2OP(=O)(N(C)C)N(C)C)cc1 (configuration not stated)	4.0%	i
38	Oc1ccc(Cl)cc1CNCc1ccc(F)cc1	-18.5%	-7.9%
39	CC(C)(C)CC(=O)Nc1ccc(S(=O)(=O)N2CCCC2)cc1	-8.4%	i
40	COc1cccc(C(=O)Nc2ccccc2F)c1	-5.4%	i
41	Cc1cccc(-c2nnn3c2nc(NCCc2ccc(S(N)(=O)=O)cc2)c2cc(Cl)ccc23)c1	-16.1%	-20.4%
42	Cc1cccc(N2CCN(C(=O)CCNS(=O)(=O)c3ccc4c(c3)CCN4C(=O)C3CC3)CC2)c1C	-20.9%	-21.6%
43	CCOc1ccc(C(=O)COC(=O)Cn2[nH]c(=O)c3ccccc3c2=O)cc1	-10.9%	-0.1%
44	CCS(=O)(=O)Nc1c(C(=O)O)[nH]c2ccccc12	7.8%	-4.4%
45	COc1ccc(CCNC(=O)c2ccc(CSCc3ccc(C)cc3)o2)cc1OC	-7.9%	-13.1%
46	O=C(NC1CC(=O)N(c2ccc3c(c2)OCCO3)C1)N1CCCCC1 (configuration not stated)	-12.1%	-14.9%
47	CC(C)n1cnc2c(NCc3ccccc3)cc(OCC3CCN(C)CC3)cc21	?	?
48	O=C(OCC#CCSc1nnc(-c2ccc(Br)cc2)o1)c1ccco1	-11.9%	-17.7%
49	CN(C)S(=O)(=O)c1ccc(C(=O)OCC2CC2(Cl)Cl)cc1 (configuration not stated)	-12.9%	-1.2%
50	CCOc1ccccc1NC(=O)C1CCN(S(=O)(=O)c2cc(Br)cc3c2N(C(C)=O)CC3)CC1	-8.8%	-8.6%
51	O=C(COC(=O)c1cc(=O)[nH]c(=O)[nH]1)Nc1cccc(S(=O)(=O)N2CCCCC2)c1	-10.4%	-5.6%
52	CCOC(=O)c1ccccc1NC(=O)CC(C)CC(=O)O (configuration not stated)	13.4%	.
53	CCN1C(=O)C(O)(CC(=O)c2cccc(-n3cccc3)c2)c2ccccc21 (configuration not stated)	-16.9%	-28.2%
54	CCN(C(=O)CN1C(=O)S/C(=C\c2ccccc2Cl)C1=O)C1CCS(=O)(=O)C1 (configuration not stated)	13.0%	-9.2%
55	COC(=O)C1=C(N)Oc2cc(C)[nH]c(=O)c2C1c1ccncc1 (configuration not stated)	-5.9%	i
56	O=C(C[C@H]1C/C=C\CC[C@H](Cc2ccc(F)cc2)C(=O)OCCNC1=O)NCCO	-4.4%	i
57	COc1cccc(-n2c(=O)c3ccccc3n3c(=S)[nH]nc23)c1	0.4%	i
58	C#CCOCCOCCOCCNc1nc(N2CCN(C(=O)[C@H]([C@@H](C)CC)n3cc(CCCCN)nn3)CC2)nc(N2CCN(C(=O)[C@H](C)n3cc(CCCN=C(N)N)nn3)CC2)n1	-5.4%	i
59	CCCCOC(=O)N1CCOCCOCCN(C(=O)OCCCC)CCOCCOCC1	-18.9%	-27.4%
60	CO/N=C/c1ccc(Sc2ccccc2N)c([N+](=O)[O-])c1	-18.4%	-26.6%

The list goes on:
no.	SMILES	Vaccinia Venus	Vaccinia mCherry
61	O=[N+]([O-])c1cccc(-c2nnc(C34CC5CC(CC(C5)C3)C4)o2)c1	-13.7%	-8.4%
62	CC1(c2nnc(Cc3ccccc3)o2)CC(c2cccnc2)=NO1 (configuration not stated)	-12.2%	i
63	COc1ccc(C(=O)c2sc(Nc3cc(Cl)ccc3C)nc2N)cc1OC	-9.5%	-21.6%
64	Oc1ccc(C2CNCc3sccc32)cc1O (configuration not stated)	-19.1%	-2.2%
65	Cc1cccc(NC(=O)COc2cccc3c2CCN(C)C3=O)c1C	-17.2%	1.0%
66	COc1ccc(-c2cnc(C(O)c3ccc(-c4ccccc4)cc3)[nH]2)cc1 (configuration not stated)	-9.9%	-0.3%
67	CCc1ccc(Nc2ncc3c(n2)CC(C)CC3=O)cc1 (configuration not stated)	-6.6%	-1.7%
68	COc1ccccc1CNC(=O)C1CCCN(c2nnc(-n3c(C)ccc3C)s2)C1 (configuration not stated)	-2.6%	-12.2%
69	c1ccc(-c2cnnc(SCc3cn4cccnc4n3)n2)cc1	-14.7%	.
70	Cc1ccc(S(=O)(=O)Nc2ccc(N3CCOCC3)cc2)cc1	5.1%	-11.4%
71	Cc1ccc(CN(Cc2ccco2)C(=O)c2ccccc2Cl)o1	-1.8%	-1.9%
72	CC(=O)Nc1ccc2c(c1)Cc1c-2cc(Br)c(N)c1Br	-16.3%	-24.1%
73	Cc1c(C(=O)NCc2ccccc2Cl)sc2nc[nH]c(=O)c12	-18.8%	-25.0%
74	OC(c1ccc(Cl)c(F)c1)c1ncc(-c2cccc(F)c2)[nH]1 (configuration not stated)	-13.1%	3.8%
75	CC1=NN(C(=O)c2csc(C)c2C)C(O)(C(F)(F)F)C1 (configuration not stated)	-4.5%	i
76	Cc1ccc(C(=O)c2c(N)c(C(=O)Nc3ccccc3Cl)c3ccccn23)cc1	-6.0%	-7.9%
77	CCCCCn1c(=NC(=O)c2cccnc2)c(C#N)cc2c(=O)n3cccc(C)c3nc21	-7.9%	-7.2%
78	O=C1C(Cl)=C(NCCCN2CCOCC2)C(=O)N1CCc1ccccc1	-14.2%	-26.4%
79	O=C(N/N=C/c1ccccn1)c1cc(Br)ccc1O	-4.0%	-3.1%
80	CCc1ccccc1NC(=O)c1ccc(S(=O)(=O)N2CCCC2)cc1	-9.1%	-8.5%
81	O=C(CNC(=O)c1ccc(Cl)cc1)OCc1cc(=O)n2nc(C3CC3)sc2n1	-0.5%	2.1%
82	O=C(N/C(=C/c1cccc([N+](=O)[O-])c1)C(=O)N1CCCCCC1)c1cccs1	-20.1%	-6.6%
83	CC(C)OCCCNC(=O)Nc1cccc2ccccc12	-7.5%	i
84	Cc1cc(C(=O)NP(=O)(N2CCOCC2)N2CCOCC2)c(C)n1-c1ccc(Br)cc1	-5.4%	i
85	COc1cc2c(cc1OC)CN(C(=S)Nc1ccccc1Cl)CC2	-19.9%	-17.4%
86	Cc1ccc(NC(=O)CCSc2nnc3ccccn23)cc1	-6.2%	i
87	CC(=O)Nc1nc2ccccc2[nH]1	-9.0%	i
88	COc1ccc(-c2oc3ccc(N4CCOCC4)cc3c2C#CC2(O)CCCCC2)cc1	-27.8%	?
89	Cc1ccc(CNC(=O)c2c3c(nc4ccccc24)C(=O)N(C2CCCCC2)C3)cc1	-11.5%	i
90	COC(=O)c1ccc2nc(-c3cccc(Cl)c3)c(Cc3ccsc3)n2c1	-4.7%	i

The listing continues.
no.	SMILES	Vaccinia Venus	Vaccinia mCherry
91	COc1ccc(N2CCN(C(=O)CCc3ccc(S(=O)(=O)NCC(C)C)cc3)CC2)cc1	?	.
92	N#CCC(=O)N/N=C/c1ccccc1Cl	5.0%	-14.4%
93	CC(C)c1nnc(SCC(=O)N2CCc3ccccc32)n1N	-13.1%	i
94	CC(=O)O[C@H]1CC[C@@]2(C)C(=CC(=O)C3C2CC[C@@]2(C)C3C[C@H](OC(C)=O)[C@@H]2OC(C)=O)C1 (some centres not stated)	8.9%	i
95	c1coc(-c2cc(C3CCNCC3)[nH]n2)c1	12.8%	-7.8%
96	COc1cc(CNCCCCO)ccc1OCc1ccccc1F	-3.3%	i
97	CC(NC(=O)c1cccs1)C(c1cccs1)N1CCN(Cc2ccccc2)CC1 (configuration not stated)	-15.1%	-6.3%
98	CC1(c2nnnn2-c2ccc3c(c2)OCCO3)CCC(=O)N1Cc1ccc(F)cc1 (configuration not stated)	7.0%	-7.1%
99	Cc1cnc2ccc3ccccc3c2c1C	-17.7%	-12.4%
100	COC(=O)C1=C(CN2CCc3ccccc32)NC(=O)NC1c1cc(C)ccc1C (configuration not stated)	-20.5%	.
101	Brc1ccc2c(c1)CN(CC1CCCCC1)Cc1cnnn1-2	-3.0%	0.1%
102	O=C(NC1CCCCC1)C(c1ccco1)N(C(=O)c1csnn1)c1cccc(F)c1 (configuration not stated)	-17.5%	-6.2%
103	Cc1cccc(OCC(=O)NCCNC(=O)c2ccncc2)c1	-14.2%	-19.0%
104	CC1CCC2(CC1)NC(=O)N(NC(=O)c1ccc(OC(C)C)cc1)C2=O (configuration not stated)	-6.1%	-0.9%
105	CCOc1ccc(CCN2C(=S)N([C@@H](CC(C)C)CN3CCCC3CN3C(=S)NC[C@@H]3Cc3ccccc3)C[C@@H]2CC(C)C)cc1 (some centres not stated)	-14.8%	-12.4%
106	CC(=O)O[C@@H]1C[C@H](c2ccccc2)OC(=O)CCCCC1=O	-2.9%	-7.0%
107	Cc1cccc(-c2nnc(SCC(=O)N3CCOCC3)o2)c1	-14.6%	-6.2%
108	O=c1cc(O)c2ccc(O)cc2o1	-21.3%	0.0%
109	Cc1cc(C)c(S(=O)(=O)NCCOc2ccccc2)c(C)c1-n1cnnn1	-6.1%	-12.2%
110	O=C1NC(=Nc2ccccc2)S/C1=C\c1cccn1-c1ccccc1	?	.
111	CC(CNS(=O)(=O)c1ccc(Cl)cc1)n1cncn1 (configuration not stated)	0.9%	-14.4%
112	O=C(COC(=O)/C=C/c1ccc(F)cc1)NC1CCCCCC1	-18.7%	i
113	COc1cc([N+](=O)[O-])ccc1NC(=O)CCCOc1ccccc1	-11.3%	-23.2%

Not a hit list, and some 0.87% of all compounds hit somewhere here.
